Screening data deposited in PubChem by several laboratories.
BJeLR lethal = kills HRASV12-expressing BJeLR cells | BJeLR (HRASV12) viability, CellTiter-Glo ATP luminescence, 48 h; reference of the scale not given here | inhibition, % (concentration not given with the values) | hit rate 0.17% among 300,000 | AID 1554;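 active = replicate mean above 50%; inconclusive = above 50% but judged a plate artefact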;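 also: 50 nL library stock added to about 25 µL; numbers are from one replicate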
Autofluor counter = counter-screen for toxin protease inhibitors: compound fluorescence. compound autofluorescence counterscreen, microsphere flow cytometry; active compounds read high. fluorescence intensity (concentration not given with the values). hit rate 3.1% among 360,000. AID 624483;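 active = at least 3 SD above the mean of all compounds, about 16000 in these data; inconclusive = too few beads counted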;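 also: 100 nL of 1 mM stock went into each well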
Mtb hypoxia rep = Mtb hypoxia fluorescent reporter inhibition | M. tuberculosis hypoxia-regulated fluorescent reporter, fluorescence | fluorescence inhibition, % (test concentration not listed) | hit rate 0.1% among 300,000;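 active = 35 to 45% if threefold the growth effect, above 45% if 1.5-fold the growth effect; inactive = the rest, general growth blockers included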;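 also: wells of about 50 µL received 100 nL stock; 0% = vehicle wells and 100% = reference inhibitor wells; whole bacteria with a GFP reporter of the hypoxia response; strong numbers were not always called active; many hits fall short of the cut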
PrP 5UTR inh = suppresses PrP 5' UTR mRNA reporter expression; hit rate 0.35% among 340,000; AID 488862; cell-based PrP 5' UTR mRNA reporter, plate reader; inhibition, % (no concentration beside the values);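 active = every replicate at 50% or more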;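 also: 0 = median of the neutral control wells; tested in H4 reporter cells; numbers are from one replicate; inactives centre near -14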
Sa RN4220 lethal = S. aureus RN4220 growth inhibition; hit rate 0.33% among 330,000; OD600, 16 h; inhibition, % (test concentration not listed);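 active = z-score of -3 or lower and OD600 up to 0.18 on both plates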;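 also: plate controls were untreated cells for no effect and reference antibiotic for full effect; stock transfer was 100 nL into about 80 µL; one replicate is shown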
ugtP null kill = growth inhibition of S. aureus ugtP deletion strain. AID 1259309. hit rate 0.54% among 330,000. S. aureus RN4220 ugtP deletion, OD600 growth, 16 h; some inactives read as strong as hits. growth inhibition, % (no concentration beside the values);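 active = z-score under -3 and OD600 up to 0.15 on both plates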;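 also: plate controls were untreated wells for no effect and antibiotic for full effect; wells of about 80 µL received 100 nL stock; the first replicate is given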
Mtb hypoxia rep growth = recorded beside Mtb hypoxia rep, whose call it bears; growth inhibition, %; measured here: M. tuberculosis growth (absorbance);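 0% = vehicle and 100% = reference antibiotic; read after six days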
Active calls of the source: *; ? = inconclusive; . = not tested or not shown.

SMILES	BJeLR lethal	Autofluor counter	Mtb hypoxia rep	Mtb hypoxia rep growth	PrP 5UTR inh	Sa RN4220 lethal	ugtP null kill
C=CCSc1nc(C)c(CCCC)c(=O)[nH]1	-4	3062	5	0	-23	10	7
COc1cccc(C(=O)Nc2ccc(C(=O)O)cc2)c1	0	3077	0	1	4	4.7	16
N=c1c(C(=O)NCC2CCCO2)cc2c(=O)n3ccccc3nc2n1Cc1ccc(F)cc1 (configuration not stated)	8	4760	3	2	-32	0.2	3
O=C(O)C1CCC(Cn2c(SCc3cc(=O)n4cc(Cl)ccc4n3)nc3ccsc3c2=O)CC1 (configuration not stated)	4	7413	4	4	-35	36	32
CCCc1cc(=O)[nH]c(SCC(=O)N(C)CC(=O)Nc2ccccc2CC)n1	2	4591	6	8	-11	3.8	-1
COC(=O)/C=C(\C)NC(=O)c1ccc(F)cc1	5	3076	-8	7	-14	15	0
Cc1ccc(CNC(=O)COC(=O)CSc2cc(C)c(Br)cc2C)cc1	3	2073	12	3	-18	7.9	8
Cc1cccc(C(=O)Oc2ccc(C=NO)cc2)c1	.	.	1	11	.	6.9	-2
CC1(C)Oc2ccc3ccc(=O)oc3c2[C@@H](O)[C@H]1O	.	2974	4	-2	-16	-5.2	5
CCOc1ccc(NC(=O)CC2C(=O)N(c3ccccc3)C(=O)N2Cc2ccccn2)cc1 (configuration not stated)	1	22858*	4	9	-10	2.1	5
Nc1ccc(-n2nc(C(F)(F)F)cc2C(F)(F)F)cc1	9	?	18	2	-24	3.4	13
COc1cc(/C=N/NC(=O)C(=O)NCc2cccnc2)cc(OC)c1OC	-3	2094	.	.	-25	.	.
O=C(Nc1nnc(-c2ccco2)o1)c1ccc(Cl)cc1	7	5474	-7	-4	-28	0.8	23
COCc1nnc(NC(=O)c2ccccc2[N+](=O)[O-])s1	-15	2028	9	0	-2	5.8	2
CCOc1ccc(S(=O)(=O)NCCC(=O)NCC(c2cccs2)N(C)C)cc1 (configuration not stated)	5	5573	-6	-7	-16	6.9	0
O=C(Cn1cnc2ccccc2c1=O)OCC(=O)c1ccc2c(c1)OCCO2	-3	4191	1	3	-21	2.9	-3
CC(C)(C)NC(=O)COc1coc(CN2CCN(Cc3ccccc3)CC2)cc1=O	5	4369	-4	-7	-1	5.7	12
CC(C)OCC(O)CN1CCN(CCN2C(=O)c3cccc4cccc(c34)C2=O)CC1 (configuration not stated)	-5	5728	10	2	-23	0.8	12
CCOC(=O)c1nn(-c2ccc(F)cc2)c2nc(CC(C)C)c(C#N)c(=O)n12	-3	18268*	2	9	5	4.2	-1
Cc1cc(C)c(C(=O)NCC2CCCO2)c(C)c1C(=O)NCC1CCCO1 (configuration not stated)	5	2919	-7	11	-5	2.9	2
COC(=O)c1cccc(NS(=O)(=O)c2ccc(NC(C)=O)cc2)c1C	7	8741	5	4	-28	2.2	-9
O=C(CSc1nc2ccccc2c(=O)n1CCCN1CCOCC1)NCCc1ccccc1	.	.	4	-1	-13	6.9	7
O=C(NC1CCCCC1)c1cccc2c1C(=O)c1ccc(N3CCCC3)cc1S2(=O)=O	.	4029	-5	2	-23	13	-1
CNC(=O)Nc1cccc(C(F)(F)F)c1	4	?	14	20	4	2.3	1
CC1(C)OC(=O)N(c2ccccc2)C12C=Cc1c(ccc3ccccc13)O2 (configuration not stated)	-4	3238	.	.	-6	-4.1	44

Other results follow:
SMILES	BJeLR lethal	Autofluor counter	Mtb hypoxia rep	Mtb hypoxia rep growth	PrP 5UTR inh	Sa RN4220 lethal	ugtP null kill
COc1cc(NC(=O)Cc2cccs2)cc(OC)c1	-2	4446	6	13	-27	1.4	4
COC(=O)c1cc(Br)c(=O)n(CCN2CCCC2)c1	-6	3975	.	.	-4	0.0	4
COc1cccc(C2C([N+](=O)[O-])=C(N)Oc3c2c(=O)oc2ccccc32)c1 (configuration not stated)	-5	9104	4	4	-15	6.8	6
Cc1cnnn1-c1ccc(C(=O)CCl)cc1	-6	3412	-83	-22	-15	98*	98*
COc1ccc(-c2nn(-c3ccccc3)cc2C=Nn2cnnc2)cc1OC	.	.	13	1	.	-13	-3
CC1CN(C(=O)CCc2ccccc2)C(C)CN1C(=O)CCc1ccccc1 (configuration not stated)	-1	3062	10	2	-28	5.3	11
CCCCn1nnnc1SCC(=O)NC1CCCCC1	0	3804	7	4	-26	3.0	5
O=C(NCc1ccncc1)/C(=C/c1cccc([N+](=O)[O-])c1)NC(=O)c1ccccc1	12	4033	2	1	-12	3.2	12
CCC(C)[C@H](NC(=O)NCc1ccc(S(N)(=O)=O)cc1)C(=O)OC (some centres not stated)	-2	2630	13	14	-16	-0.4	8
Cc1nc(NC(=O)CSc2nncs2)c(Cl)cc1Cl	6	3418	5	16	-9	3.0	12
O=C1CCCC2=C1C(c1ccccc1)CC(=O)N2c1ccc(F)cc1F (configuration not stated)	3	4185	-1	9	-11	3.9	2
CCN(C(=O)CN1C(=O)NC(c2ccccc2)(c2ccccc2)C1=O)c1ccccc1	-3	3734	5	5	-23	1.4	-4
COc1cc(C2C(C#N)=C(N)Oc3cc4c(cc32)OCO4)cc(OC)c1OC (configuration not stated)	43	3857	3	5	33	1.1	18
COc1ncccc1-c1nnn(-c2ccc(C)cc2)n1	3	2919	6	13	-63	4.3	3
COC(=O)c1cc(C(=O)OC)n(Cc2ccc(Cl)cc2Cl)n1	3	15198	9	2	-6	-0.6	10
CCCCC[C@@H]1C=C(C(=O)O)[C@H](c2ccc(Br)cc2)N1S(=O)(=O)c1ccc(C)cc1	.	3808	-3	4	-21	15	-3
CCc1cc(C(=O)c2ccc(OC)cc2)c(NC(=O)CCC(=O)O)s1	-5	6187	6	10	.	8.7	-7
COc1ccc(C(=O)Nc2cc3c(cc2N2CCOCC2)n(C)c(=O)n3C)cc1OC	-3	5841	2	11	-16	2.8	0
N#CC1=C(SCC(=O)NCc2ccccc2)NC(=O)CC1c1ccco1 (configuration not stated)	0	4769	3	8	-16	-3.1	3
C=CCOc1ccc(/C=C\c2nc(O)c([N+](=O)[O-])c(=O)[nH]2)cc1OC	6	3677	13	2	-16	0.0	8
CN(C)c1cc[n+](CC[n+]2ccc(N(C)C)cc2)cc1	-7	2880	3	2	-6	2.1	-1
CCCc1nc(N)c(C#N)c(N)c1C#N	-4	2532	2	2	10	4.1	-1
CCCCN(CC)C(=O)C1CCC(CNS(=O)(=O)c2cccc3nsnc23)CC1 (configuration not stated)	0	4226	7	-7	-6	0.7	11
O=C(Cn1nc(CNc2ccc(Cl)cc2)[n+]2c1CCCCC2)c1ccc(Br)cc1	-9	8583	.	.	-3	89*	98*
CC(C)CN1CCC(=O)N(C(CN=[N+]=[N-])Cc2ccccc2)CC1 (configuration not stated)	.	.	4	7	.	2.0	1

The list continues.
SMILES	BJeLR lethal	Autofluor counter	Mtb hypoxia rep	Mtb hypoxia rep growth	PrP 5UTR inh	Sa RN4220 lethal	ugtP null kill
CN(CC(=O)Nc1cc(S(=O)(=O)N2CCCC2)ccc1Cl)Cc1ccc2c(c1)OCO2	.	8680	2	-1	-15	0.5	6
Cc1cccc(C)c1NC(=O)C(NC(=O)CN1C(=O)c2ccccc2C1=O)c1ccccc1 (configuration not stated)	-6	2378	7	9	-8	14	-5
CN(C)CCCCCCCCCCC(=O)/C=N/O	-1	5917	.	.	-4	.	.
CCOc1ccc2[nH]c(O)c(NC(C)=O)c2c1	3	5606	5	4	4	2.4	10
O=C(Nc1ccccc1)c1ccc(S(=O)(=O)N2CCC(C(=O)O)CC2)cc1	7	5348	6	-4	-20	-0.1	2
O=C(Nc1ccc(Br)c(C(F)(F)F)c1)c1ccccc1	-13	2447	20	27	-47	0.6	-23
O=C1C=CC2C(c3ccc4c(c3)OCO4)CC1N2Cc1ccccc1 (configuration not stated)	6	2507	4	6	-1	4.9	-5
CCCCn1c(SCC(=O)Nc2cc(NC(=O)c3ccco3)ccc2C)nc2ccccc2c1=O	-5	4455	1	-7	-6	1.9	-7
Cc1ccccc1OCC(=O)Nc1nc(C)c(C(=O)N(C)C)s1	-2	9725	2	6	-11	2.2	10
COc1ccc(N(CC(=O)Nc2cc(Cl)ccc2OC)C2=NC3CS(=O)(=O)CC3S2)cc1 (configuration not stated)	-19	5397	7	6	-20	-9.0	-6
CCS(CC)=NS(=O)(=O)c1ccc(NC(C)=O)cc1	-3	4549	.	.	-31	5.2	-7
Cc1nn(C)c(C)c1NC(=O)c1cc2nc(-c3ccco3)cc(C(F)(F)F)n2n1	-2	3882	6	4	-33	5.2	5
O=C(CN1C(=O)C2C3C=CC(C3)C2C1=O)Nc1ccc(S(=O)(=O)N2CCCCC2)cc1 (configuration not stated)	1	2530	2	13	-23	5.6	-1
O=C(/C=C/c1ccccc1)Nc1ncn[nH]1	-4	10510	-3	9	-14	-0.1	-2
O=C(N[C@H](Cc1cc(=O)[nH]c2ccccc12)C(=O)O)c1ccc(Cl)cc1	4	2932	-10	-8	-15	-4.3	-4
CCn1c(SCC(=O)n2c(C)c(C)c3ccccc32)nnc1-c1ccco1	-13	3316	6	-3	-9	3.7	9
COc1ccc(C(=O)N2CCN(CCNC(=O)C(=O)Nc3ccc(F)cc3)CC2)cc1OC	-10	3164	8	7	-17	0.3	0
CC(=O)c1cccc(S(=O)(=O)N2CCC(C(=O)NC3CCCC3)CC2)c1	.	?	-3	2	4	1.3	-5
O=C(c1ccccc1)N1CCOC12CCN(c1ncc(C(F)(F)F)cc1Cl)CC2	-12	3638	18	9	-19	-8.0	1
O=[N+]([O-])c1ccc(N2CCN(S(=O)(=O)c3cnc[nH]3)CC2)cc1	9	5277	3	5	-13	1.3	11
CCCCNC(=O)c1ccc2c(c1)ncn2C1CCCCC1	6	3218	-2	11	-32	2.0	4
CC(=O)C1=C(C)N(CC2CC2)C(=O)N[C@H]1c1ccc(Br)cc1	-4	4387	.	.	-2	.	.
Cc1ccc(-c2nnc(SCC(=O)N3CC(C)CC(C)C3)o2)cc1C (configuration not stated)	1	5886	.	.	-14	5.5	14
Cc1ccnc(NC(=O)c2ccc(S(=O)(=O)N3CCCCC3)cc2)c1	.	3473	-2	10	-19	0.6	3
O=C(Nc1ccc2c(c1)OCO2)c1ccc(CO)cc1	.	8756	1	11	-65	0.2	1

More entries
SMILES	BJeLR lethal	Autofluor counter	Mtb hypoxia rep	Mtb hypoxia rep growth	PrP 5UTR inh	Sa RN4220 lethal	ugtP null kill
COc1ccc(Cl)cc1NC(=O)CN1CCCCCC1	2	3261	-3	-2	-4	1.4	6
CCC1=C(OC(=O)N(CC)CC)N2C(=O)OC(=NCC3CC3)[C@]2(Cc2ccccc2)C2C1=CCC1C(=O)N(CC)C(=O)C12 (some centres not stated)	.	.	4	4	.	2.4	1
Cc1ccccc1C(=O)Nc1ccc2c(c1)C(=O)NC2=O	-10	5635	7	0	2	2.6	-11
COc1ccccc1C1CCN(Cc2ccc(C)cc2)CC1	-3	4505	18	23	.	4.7	3
Cc1cc(-c2nnc(SCC(=O)Nc3ccc(F)cc3F)n2N)n[nH]1	-7	4839	12	1	-30	1.2	4
CC(=O)Nc1ccc(OCC(O)CN2C(C)CCCC2C)cc1 (configuration not stated)	-2	2622	8	7	-16	3.8	17
Cc1ccc2cc(NC(=O)CC(CC(=O)O)c3ccccc3)ccc2n1 (configuration not stated)	-3	3935	12	-1	-13	2.3	1
